GALR2 agonist: activates the human galanin receptor 2. GALR2-expressing cells, agonist activation read-out. activation, %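 (tested at 5 µM)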. actives 0.48% (n = 140,000). AID 803;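 active = above mean plus 3 SD of all compounds, about 5% in these data, not always enough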;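 also: 0% = vehicle buffer wells and 100% = reference agonist at full effect; tested in CHO reporter cells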
RGS16-Gao: RGS16-Galphao interaction regulator (human); O15492+P09471; bead-based flow cytometry RGS16-Galphao binding, fluorescence; actives lie on both sides; binding response (% of control), % at 10 µM; actives 0.38% (n = 220,000); AID 1441;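 active = below 25% or above 175%, edge rows of some plates excepted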;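 also: Galphao activated by GDP with aluminum fluoride before binding; 100% = wells without compound and 0% = beads without RGS; some results beyond the cut were filed as inactive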
HSV replic up: HSV replication enhancement. HSV replication augmentation in cells, fold increase. maximum fold increase. actives 0.005% (n = 220,000);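 active = peak rise of 1.5-fold or more in the series; inconclusive = self-fluorescent or not available for retest; tested in PC3 cells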;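 also: first round at 10 µM; read as green reporter fluorescence; hits show the peak of a series up to 25 µM; 1 = signal of infected wells without compound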
PKD1 inh: PKD1 (human) kinase inhibition; Q15139; PKD1 kinase fluorescence polarization assay; inhibition, %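 (about 10 µM by stock and volumes)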; actives 0.056% (n = 200,000);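 active = inhibition of 50% or more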;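 also: controls were vehicle for no effect and a reference inhibitor for full effect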
Target sequence (Q15139 whole entry, looked up): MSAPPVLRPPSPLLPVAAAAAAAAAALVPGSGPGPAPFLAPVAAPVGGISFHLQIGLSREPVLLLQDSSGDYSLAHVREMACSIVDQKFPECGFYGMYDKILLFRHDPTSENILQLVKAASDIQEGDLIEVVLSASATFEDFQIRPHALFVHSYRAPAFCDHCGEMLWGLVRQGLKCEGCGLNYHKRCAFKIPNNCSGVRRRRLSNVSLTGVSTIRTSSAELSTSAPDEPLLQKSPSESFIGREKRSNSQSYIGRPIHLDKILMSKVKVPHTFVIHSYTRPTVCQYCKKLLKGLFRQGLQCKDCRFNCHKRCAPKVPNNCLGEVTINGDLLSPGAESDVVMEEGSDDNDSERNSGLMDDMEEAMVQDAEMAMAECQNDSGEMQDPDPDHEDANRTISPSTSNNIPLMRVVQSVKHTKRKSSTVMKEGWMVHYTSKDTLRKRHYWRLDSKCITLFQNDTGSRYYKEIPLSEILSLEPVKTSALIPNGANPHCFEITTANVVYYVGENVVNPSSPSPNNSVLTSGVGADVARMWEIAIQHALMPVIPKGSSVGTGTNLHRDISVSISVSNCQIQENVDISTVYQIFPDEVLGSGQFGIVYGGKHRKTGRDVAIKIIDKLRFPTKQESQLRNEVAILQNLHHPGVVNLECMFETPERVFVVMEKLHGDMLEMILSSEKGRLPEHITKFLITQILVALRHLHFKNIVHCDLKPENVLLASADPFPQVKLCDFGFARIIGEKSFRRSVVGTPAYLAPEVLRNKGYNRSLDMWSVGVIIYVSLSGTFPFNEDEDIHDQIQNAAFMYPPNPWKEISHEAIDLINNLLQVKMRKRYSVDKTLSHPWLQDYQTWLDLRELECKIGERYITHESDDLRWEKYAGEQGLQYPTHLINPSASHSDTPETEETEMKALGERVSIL
Insulin prom inh: TRM-6 insulin promoter activity inhibition. TRM-6 cells (human fetal islet line), insulin promoter-eGFP reporter, imaging; reporter expression induced with tamoxifen. actives 0.9% (n = 130,000). AID 1273. inhibition, % at 2 µM;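 active = inhibition above the mean plus 3 SD, with well images judged a real hit on visual review, cut at about 60% in these data, passing the limit was not always enough; inconclusive = inhibition over the cutoff but images rejected on review; inactive = inhibition not above the cutoff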
Insulin prom inh cell count: also measured in Insulin prom inh; calls as there; normalized cell count, %; measured here: cell count, toxicity; reference of the scale not given here;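 cells exposed to compound for 48 h; stained nuclei by imaging scaled within each plate; lower means fewer cells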
HSV replic up primary fold: further read-out of HSV replic up, marked with its call; fold increase; compound at 10 µM; measured here: primary screen fold increase 10 uM; tested in PC3 cells;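 GFP signal in the first replicate; 1 = infected wells without compound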
An asterisk follows results filed as active; i = inactive; ? = inconclusive; . = not tested or not shown; & = joins results of further samples.

Screens in order – GALR2 agonist	RGS16-Gao	HSV replic up	HSV replic up primary fold	PKD1 inh	Insulin prom inh	Insulin prom inh cell count
> CC(C(N)=O)N1C(=O)c2cccc3cccc1c23 (stereo unspecified)
  -2.2	101	i	0.88	1	62	76
> COCCn1nnnc1CN(CCc1ccccc1)Cc1cc2ccc(C)cc2[nH]c1=O
  -0.5	99	i	0.88	-3	-43	58
> COCC(=O)Nc1ccc(Br)c(C)c1
  .	106	i	0.89	0	.	.
> CN(C)c1cccc(NC(=O)CCc2ccccc2)c1
  -3.9	103	i	1	-7	50	82
> Cc1ccc(S(=O)(=O)NC(=O)Nc2nc(-c3ccc(F)c(F)c3)cs2)cc1
  .	102	i	0.97	.	.	.
> Cc1cc(C)nc(SCc2nnc(SCC(=O)Nc3nccs3)n2Cc2ccco2)n1
  1.5	100	i	0.83	3	-27	141
> COc1ccccc1N1CCN(C(=O)CCCn2nc(C)c([N+](=O)[O-])c2C)CC1
  .	82	i	1	4	.	.
> O=C(c1cc([N+](=O)[O-])ccc1N1CCCCC1)N1CCc2ccccc21
  -0.9	98	i	0.78	3	.	.
> O=C(Nc1ccc(Cl)c(C(F)(F)F)c1)N1CCCC(O)C1 (stereo unspecified)
  -0.2	101	i	0.88	-8	-71	28
> CN(c1ccc(O)cc1)c1nc(-c2cccs2)cs1
  .	103	i	1.1	-5	33	42
> CC(=O)c1cc(C#N)c(SCc2ccc([N+](=O)[O-])cc2)nc1C
  .	100	i	1	-3	.	.
> Cc1ccc(C2=Nc3ccccc3N=C(C(Cl)Cl)C2)cc1
  .	98	i	1	-5	82*	139*
> Cc1nn(CC(=O)N2CC(=O)Nc3ccccc32)c(C)c1[N+](=O)[O-]
  .	104	.	.	-3	29	139
> COc1cc(OC)c(C2SCCN2S(=O)(=O)c2ccc(F)cc2)cc1OC (stereo unspecified)
  0.4	104	i	0.99	-9	-8	109
> COc1ccc(CNC(=O)COC(=O)c2ccc(Br)cc2)cc1
  .	93	i	0.92	-5	.	.
> COC(=O)c1cc2occc2n1CC(=O)Nc1cc(OC)cc(OC)c1
  -1.8	91	i	0.8	6	.	.
> O=C(NC1CCCC1)C(c1cccs1)N(CC1CCCO1)C(=O)Cc1cccs1 (stereo unspecified)
  -1.5	86	i	0.97	-6	-106	91
> CCCN(CC(=O)Nc1ccc(Cl)cc1Cl)C(=O)/C=C/c1ccco1
  -3.2	102	.	.	-8	.	.
> CCOc1cccc(=O)c2c(C)oc(C)c12
  -1.2	100	?	.	-4	16	161
> O=C(CCN1C(=O)c2ccccc2C1=O)Nc1cccc(S(=O)(=O)N2CCCCC2)c1
  -2.6	102	i	0.89	-1	-7	79
> Cn1c(Cn2cnc3ccccc32)nc2ccccc21
  -0.5	93	i	1	2	-11	83
> O=C(CSc1nc2ccc(NC(=O)C3CCCCC3)cc2s1)NCC1CCCO1 (stereo unspecified)
  -1.0	119	i	0.92	-6	21	93
> Cc1ccc2nc(Cl)nc(-c3ccccc3)c2c1
  .	97	i	0.98	3	.	.
> Cc1ccc(C)c(OCC(=O)Nc2nc3ccc([N+](=O)[O-])cc3s2)c1
  0.1	79	i	0.88	0	.	.
> Cc1noc(C)c1C(=O)N1CCc2ccccc21
  -2.1	106	i	0.97	-7	25	137
> CCCCCCNS(=O)(=O)c1ccccc1Br
  .	97	i	0.75	.	.	.
> O=C(Cc1cccs1)N1CCN(S(=O)(=O)c2ccc(Br)cc2)CC1
  -0.3	105	i	0.96	-7	-93	112
> CCCCC1(Cc2ccc(OC)c([N+](=O)[O-])c2)C(=O)N(c2ccccc2)N(c2ccccc2)C1=O
  1.1	98	i	1.1	1	-13	100
> COc1nccnc1NS(=O)(=O)c1ccc(NC(=O)c2cccc(C)c2)cc1
  .	107	i	0.94	-2	.	.
> COc1ccc(NS(=O)(=O)c2ccc(N3CCCC3)c(NC(=S)Nc3ccc(SC(F)F)cc3)c2)cc1
  -1.5	78	i	0.96	-13	-14	74
> CCc1ccc(S(=O)(=O)c2ccc(-n3nc(C)cc3N)cc2)cc1
  .	112	i	0.96	-1	39	159
> CCN1CCN(c2cc(C)c3cc(NC(=O)c4ccncc4)ccc3n2)CC1
  .	106	i	0.93	-13	.	.
> COc1ccc(C(C)=O)cc1COc1ccc([N+](=O)[O-])c(C)c1
  .	106	i	1	-4	.	.
> O=C(O)CCCN1C(=O)/C(=C/c2cn(-c3ccccc3)nc2-c2cccs2)SC1=S
  .	47	.	.	7	21	76
> COc1cc2c(cc1OC)CN(C(=O)c1ccco1)CC2
  .	107	i	1	-2	-11	69
> C=CCn1c(SCC(C)=O)nnc1-c1cc(-c2ccccc2)sc1N
  -2.8	99	i	0.77	-5	.	.
> O=C(CSc1nnc(CN2CCOCC2)n1-c1ccc(Cl)cc1)N1CCc2ccccc21
  -0.9	.	i	1.1	-11	38	155
> Cc1cccc(C(=O)NNC2=CC(=O)CC(C)(C)C2)c1O
  .	100	i	1.2	.	.	.
> Cc1ccc2nc(N/C(=N/S(=O)(=O)c3ccc(F)cc3)c3ccccc3)sc2c1
  .	103	i	0.92	6	-64	131
> CC1(C(=O)NCCCN2CCOCC2)Oc2cccnc2NC1=O (stereo unspecified)
  .	100	i	0.95	-1	.	.

3 entries from above, reformatted:
compound,GALR2 agonist,RGS16-Gao,HSV replic up,HSV replic up primary fold,PKD1 inh,Insulin prom inh,Insulin prom inh cell count
O=C(CSc1nc2ccc(NC(=O)C3CCCCC3)cc2s1)NCC1CCCO1 (stereo unspecified),-1.0,119,i,0.92,-6,21,93
Cc1ccc2nc(Cl)nc(-c3ccccc3)c2c1,.,97,i,0.98,3,.,.
Cc1ccc(C)c(OCC(=O)Nc2nc3ccc([N+](=O)[O-])cc3s2)c1,0.1,79,i,0.88,0,.,.

Additional structures
Screens in order – GALR2 agonist	RGS16-Gao	HSV replic up	HSV replic up primary fold	PKD1 inh	Insulin prom inh	Insulin prom inh cell count
> O=C(NC(=O)N1CCN(c2ccccc2F)CC1)c1ccccc1
  -1.8	123	i	1.2	-22	.	.
> CC(=O)N/C(=C\c1ccccc1)C(=O)OCC(=O)N(C)C1CCCCC1
  -1.5	117	i	0.99	-1	.	.
> O=C(Cn1cccc1)N1CCN(c2ccc(F)cc2)CC1
  -2.3	102	i	0.99	-11	.	.
> Cc1ccccc1C(=O)Oc1ccccc1N1C(=O)C2CC=CCC2C1=O (stereo unspecified)
  -1.2	113	i	0.96	0	-53	86
> CC(C)c1ncc(C(O)c2ccccc2)n1C (stereo unspecified)
  .	102	i	0.94	.	.	.
> O=C(CN1C(=O)C2C3C=CC(C4CC34)C2C1=O)OCC(=O)c1ccccc1 (stereo unspecified)
  0.4	95	i	0.92	-3	-22	105
> c1ccc(-c2nc(-c3ccccn3)nc(-c3ccccn3)n2)nc1
  .	107	i	0.87	.	.	.
> CCn1c(CNc2ccc(C(=O)O)cc2)nc2ccccc21
  0.0	101	i	0.8	-8	-3	108
> Cc1nn(-c2ccccc2)c2c1C1(C(=O)N(C(C)C)c3ccccc31)C(C#N)=C(N)O2 (stereo unspecified)
  1.6	97	i	0.91	2	.	.
> Cc1ccc(Nc2ccc(C(=O)O)cc2N)cc1
  -3.9	95	i	0.9	2	-100	91
> NC(=O)c1c(NC(=O)CSc2nnc(-c3ccco3)n2-c2ccccc2)sc2c1CCC2
  -0.6	92	i	1.2	-2	.	.
> CN1CCN(S(=O)(=O)c2ccc(NC(=O)c3csc4ccccc34)cc2)CC1
  -2.3	102	i	0.64	-9	24	142
> COc1ccc2ccccc2c1CN1CCN(Cc2ccccc2)CC1
  -1.7	100	i	0.86	-10	78*	52*
> COC(=O)/C=c1/s/c(=C(\C#N)C(=O)NCc2ccco2)n(-c2ccccc2)c1=O
  -0.5	100	i	1.1	-9	43	124
> CCN(CC)C(=O)c1sc(NC(=O)Cc2ccc(OC)cc2)c(C#N)c1C
  -2.9	105	i	0.95	-10	29	101
> CC(C)OC(=O)c1c2c(n3ccccc13)C(=O)c1ccccc1C2=O
  0.7	105	?	.	-5	.	.
> CN(CCc1ccccn1)C(=O)CCC1CCCN(C(=O)c2ccsc2)C1 (stereo unspecified)
  .	99	i	1.1	6	.	.
> C=C(C)C(=O)Nc1cccc(C2=NOC3(C2)C[C@H](C(N)=O)N(C(=O)/C=C/C)C3)c1 (stereo partly specified)
  .	106	i	0.98	.	.	.
> COC(=O)C1=C(Nc2ccc(OC)cc2)C=C(C)C(C(=O)OC)C1c1ccc(C)cc1 (stereo unspecified)
  -2.6	108	i	1.1	0	53	115
> CCOc1ccccc1N(CC(=O)N/N=C(\C)c1cccc(Br)c1)S(C)(=O)=O
  .	96	i	0.93	0	-67	96
> COc1ccc(S(=O)(=O)N2CCCCC2)cc1NC(=O)CSc1ncnc2ccccc12
  2.0	101	i	0.8	-14	.	.
> CCOC(=O)N1CCN(c2c(N3CCN(c4ccccc4F)CC3)c(=O)c2=O)CC1
  .	100	i	0.91	.	.	.
> Nc1nnc(Sc2ccc(Cl)cc2[N+](=O)[O-])s1
  -1.5	84	i	0.9	-8	.	.
> C=CCn1c(SCCCC)nc(O)cc1=O
  -3.4	103&92	i	0.94&1	-7	.	.
> CCOc1cccc(N2C(=O)CC(N3CCN(c4nc5ccccc5s4)CC3)C2=O)c1 (stereo unspecified)
  -1.0	93	i	1	-4	32	120
> COc1ccc(-c2nsc3c(N4CCCCC4)ncnc23)cc1
  -1.0	103	i	0.92	-8	-51	65
> O=C(Nc1cccn(Cc2c(Cl)cccc2Cl)c1=O)c1ccccc1Cl
  -1.2	115	i	0.92	-5	9	103
> Cc1ccccc1Cn1nc(C)c(NC(=O)c2ccccc2)c1C
  .	99	i	1.1	-6	.	.
> Cc1nc(N)[nH]c(=O)c1CC(=O)OCCCl
  .	101	i	0.92	.	.	.
> Cc1nn(-c2ccc(F)cc2)c(C)c1NS(=O)(=O)c1ccc(Cl)cc1
  -2.0	108	i	0.95	-1	-43	128
> O=C(c1ccc2c(c1)OCO2)N(c1ccc(Cl)cc1)C1C=CS(=O)(=O)C1 (stereo unspecified)
  -0.2	100	i	1.1	0	-6	103
> CC(C)NC(=O)NC(=O)COC(=O)c1ccccc1O
  .	91	i	0.91	0	.	.
> COc1cc(O)c(C(CC(=O)N2CCCCC2)c2ccc(N(C)C)cc2)c(OC)c1 (stereo unspecified)
  .	102	i	0.92	.	.	.
> CCc1ccc(OCC(=O)N(C)C)c(Br)c1
  -2.1	97	i	1	4	16	156
> C=CCN(CC=C)S(=O)(=O)c1ccc(C(=O)Nc2sc3c(c2C(N)=O)CCCCC3)cc1
  -0.7	98	i	1	-3	40	113
> COC(=O)c1ccc(NC(=O)c2cccc(OC)c2)cc1
  -3.0	100	i	1.1	1	.	.
> CCOC(=O)c1ccccc1NC(=O)CN(c1cccc(OC)c1)S(C)(=O)=O
  -0.7	109	i	0.91	-25	.	.
> COc1ccc(Br)cc1S(=O)(=O)Nc1ncccc1C
  .	107	i	0.96	0	.	.
> COc1ccc(OCC(=O)N2CCN(C(=O)c3ccccc3)CC2)cc1
  -1.6	101	i	0.94	0	45	96
> CC(NCCC1(C(C)C)CCOC(C)(C)C1)c1cccs1 (stereo unspecified)
  .	100	i	0.99	.	.	.
> COc1cccc2c1OCC(CN1CCN(CCC(C)C)C(CCO)C1)=C2 (stereo unspecified)
  .	105	i	0.99	4	.	.
> Nc1ccccc1-c1nnn(CC(=O)N2CCCc3ccccc32)n1
  -1.4	107	i	0.99	-2	-13	79
> O=C1CN(C(=O)COC(=O)c2cccc(OCc3ccccc3)c2)c2ccccc2N1
  0.0	117	i	0.99	0	.	.
> COC(=O)c1cn[nH]c1N
  -3.3	100	i	0.98	-10	28	97
> CCn1c(COc2ccc(Cl)cc2)nnc1SCC(=O)Nc1ccc2c(c1)OCO2
  -2.1	104	i	0.92	14	-29	90
> O=C(Nc1cccc(S(=O)(=O)N2CCCCC2)c1)c1c2c(nc3ccccc13)CCN(Cc1ccccc1)C2
  -0.4	56	i	1.2	-2	-19	93
> Cc1nc2cc(C(=O)N3CCc4ccccc43)ccc2n1-c1ccc(F)c(F)c1
  -0.4	97	i	0.97	-5	-9	81
> O=[N+]([O-])c1cnn(-c2nc(-c3ccco3)cc(C(F)(F)F)n2)c1
  .	102	i	0.92	-3	.	.
> Cc1cc(S(=O)(=O)N2CCCC(C(=O)Nc3ccc(C(=O)O)cc3)C2)ccc1Cl (stereo unspecified)
  .	108	i	0.96	-2	.	.
